LANA-H2A inh: blocks KSHV LANA binding to histone H2A/H2B. Q9QR71. cell-free LANA-H2A/H2B peptide, fluorescence polarization. inhibition, % (concentration not given with the values). 320,000 tested, 0.6% active. AID 2629; in the data active = inhibition mostly above about 10%, no sharp cut-off; inactive = mostly below about 6.7%;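 also: stock transfer was 7.5 nL into about 10 µL; 0% = median of vehicle wells and 100% = median of positive control wells; one replicate is shown; the record names a cut of 25% in any replicate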
Target sequence (Q9QR71 whole entry, looked up): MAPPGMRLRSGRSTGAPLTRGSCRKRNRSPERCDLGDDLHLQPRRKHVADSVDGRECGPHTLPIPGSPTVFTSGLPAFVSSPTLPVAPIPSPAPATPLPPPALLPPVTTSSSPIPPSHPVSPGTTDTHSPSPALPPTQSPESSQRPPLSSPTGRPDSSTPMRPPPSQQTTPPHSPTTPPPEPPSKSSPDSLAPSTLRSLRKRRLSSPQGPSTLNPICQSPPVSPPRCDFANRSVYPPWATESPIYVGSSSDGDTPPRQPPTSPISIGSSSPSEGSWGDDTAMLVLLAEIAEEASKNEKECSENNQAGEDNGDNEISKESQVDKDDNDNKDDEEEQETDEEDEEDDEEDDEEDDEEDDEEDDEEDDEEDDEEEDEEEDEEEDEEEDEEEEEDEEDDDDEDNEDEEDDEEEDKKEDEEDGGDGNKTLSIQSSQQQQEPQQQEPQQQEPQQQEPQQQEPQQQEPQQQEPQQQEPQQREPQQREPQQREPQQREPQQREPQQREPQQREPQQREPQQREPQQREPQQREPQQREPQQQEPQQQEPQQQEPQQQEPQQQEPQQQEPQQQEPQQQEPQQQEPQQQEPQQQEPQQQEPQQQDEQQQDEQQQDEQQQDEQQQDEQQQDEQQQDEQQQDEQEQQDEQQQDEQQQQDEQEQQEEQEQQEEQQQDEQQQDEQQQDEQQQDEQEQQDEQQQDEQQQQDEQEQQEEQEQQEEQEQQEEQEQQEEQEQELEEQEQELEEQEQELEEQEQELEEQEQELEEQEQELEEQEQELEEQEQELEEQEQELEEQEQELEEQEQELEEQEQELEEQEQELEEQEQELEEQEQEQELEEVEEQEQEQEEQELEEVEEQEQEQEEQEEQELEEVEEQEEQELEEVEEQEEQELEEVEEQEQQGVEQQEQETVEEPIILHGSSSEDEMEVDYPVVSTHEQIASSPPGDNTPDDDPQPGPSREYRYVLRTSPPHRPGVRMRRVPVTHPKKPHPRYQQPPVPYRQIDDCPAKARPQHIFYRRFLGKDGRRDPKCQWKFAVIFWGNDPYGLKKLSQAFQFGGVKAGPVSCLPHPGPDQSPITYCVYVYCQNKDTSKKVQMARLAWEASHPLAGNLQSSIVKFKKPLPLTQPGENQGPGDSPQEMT
A1 inh: inhibitors of the anti-apoptotic protein A1, read as caspase activation. caspase activation, % (no concentration beside the values). 330,000 tested, 0.066% active. MEF A1-2A-BIM cells, Caspase-Glo 3/7 luminescence, 3 h; percent of clofoctol response, vehicle zero. AID 2462;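 active = over half of replicate activation scores above 10%, or exactly half above 10 with the replicate mean above 10; inconclusive = replicate mean below 10 yet half the replicates above 10; inactive = over half of replicates below 10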;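 also: wells of about 30 µL received 50 nL stock; many hits fall short of the cut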
Calb FLC: C. albicans growth modulation with fluconazole; C. albicans CaCi-2 (fluconazole-resistant clinical isolate) + fluconazole, Alamar Blue growth, 48 h; growth inhibition, % (concentration not given with the values); 300,000 tested, 0.57% active;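 active = most replicates above 75%; inconclusive = exactly half above 75%; inactive = most below 75%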;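 also: all wells also contain fluconazole at 8 µg/ml as a sub-toxic cotreatment; 0% = median of DMSO wells and 100% = median of geldanamycin control wells; wells of about 8 µL received 7.5 nL stock; the first replicate is given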
T cruzi repl: blocks replication of Trypanosoma cruzi. T. cruzi beta-gal in NIH3T3, luminescence, 90 h. inhibition, % (concentration not given with the values). 300,000 tested, 1.4% active. AID 1885;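 active = mean inhibition across valid replicates above about 55%, limit read from the data; inconclusive = mean below that limit but half or more replicates reach it; inactive = mean below it, under half of replicates reach it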;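 also: signal also drops with host cell toxicity which is not excluded here; 0% = plate median of DMSO wells and 100% = zero luminescence signal; higher percent means less beta-gal luminescence so fewer parasites; stock transfer was 50 nL into about 50 µL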
B2AR ag: activates human beta-2 adrenergic receptor causing internalization; response, % (no concentration beside the values); AID 504454; Am2.2-beta2AR cells, FAP receptor internalization, flow cytometry; reference of the scale not given here; P07550; 340,000 tested, 0.43% active;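 active = response above a set limit, near 3 SD of response in nonfluorescent compounds, cut at about 42% in these data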;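 also: stock transfer was 100 nL into about 11 µL; a reference agonist was the positive control; negative values mostly stem from fluorescent compounds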
RanGTP-Imp inh: disruptors of Ran-importin-beta complex formation – biochemical, FRET, CFP-Ran, YFP-importin-beta, homogeneous, primary screen; AID 2216; inhibition, % (no concentration beside the values); 300,000 tested, 1.1% active; cell-free CFP-Ran/YFP-importin-beta FRET ratio;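 active = most replicates above 15%; inconclusive = exactly half above 15%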;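 also: 0% = DMSO wells and 100% = Ran loaded with GDP instead of GTP; wells of about 40 µL received 100 nL stock; the first replicate is given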
UCH37 DUB inh: human UCH37 deubiquitinating enzyme inhibition; purified proteasome/UCH37, Ub-AMC cleavage fluorescence; inhibition, % (concentration not given with the values); 330,000 tested, 0.33% active; AID 588478;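 active = mean of two replicates above 20%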;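 also: 0% = compound-free wells with enzyme and 100% = wells lacking proteasome; stock transfer was 100 nL into about 20 µL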
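Material: Human UCH37 enzyme supplied as purified proteasome complex | Schedule: 30 min compound-proteasome preincubation then 25 min substrate reaction, room temperature | Detection: AMC fluorescence from Ub-AMC cleavage, excitation 355 nm, emission 460 nm | Benchmarks: Wells without proteasome as full block, compound-free enzyme plus substrate as uninhibited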
Beta cell apopt: blocks beta cell apoptosis; 300,000 tested, 0.8% active; protection from apoptosis, % (concentration not given with the values); INS-1E cytokine-induced death, ATP luminescence, 48 h; percent of positive-control rescue, neutral wells zero; AID 435005;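 active = all replicates at 75% or more, or half of them and the mean; inconclusive = half reach 75% but not the mean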;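 also: 0% = cytokine-treated negative control wells and 100% = positive control rescue; higher means more ATP so stronger rescue from cytokine killing; wells of about 40 µL received 100 nL stock; the first replicate is given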
* marks the source's active call; other numbers are inactive results; ? = inconclusive; · = not tested or not shown. Outcome played no part in choosing rows; overall some 4.3% were active at least once.

SMILES	LANA-H2A inh	A1 inh	Calb FLC	T cruzi repl	B2AR ag	RanGTP-Imp inh	UCH37 DUB inh	Beta cell apopt
C=C1C(O)[C@@H]2O[C@]3(CC[C@H](/C=C/C(C)[C@@H]4CC(C)=CC5(O[C@H](C[C@@](C)(O)CO)CCC5O)O4)O3)CC[C@H]2O[C@@H]1C(O)CC(C)[C@H]1OC2(CCCCO2)CCC1C (stereo partly specified)	3.5	?	·	·	·	·	-1.7	76*
Cc1cc(C)nc(SCC(=O)Nc2ncc(Cc3cccc(Cl)c3)s2)n1	1.7	1.5	-4	8	-18	2.8	5.8	9
O=C(c1cc(-c2ccncc2)nc2ccccc12)N1CCN(c2ccccc2O)CC1	5.0	0.4	-12	37	4	-1.7	3.1	4
COc1cc(C)ccc1Oc1ncnc(N)c1[N+](=O)[O-]	-3.6	1.0	-2	-5	-2	0.9	3.6	-10
CCCCS(=O)CC(O)COCC (stereo unspecified)	-0.6	-2.6	-16	5	-1	2.1	0.3	-7
CCc1nc(N2CCN(C(=O)c3ccccc3)CC2)c2c3c(sc2n1)CCCC3	2.0	-0.1	4	33	6	1.8	0.2	·
CC(C)CCNC(=O)c1c(CSc2ccccc2)noc1C(=O)NCc1ccccc1	2.6	0.2	-6	25	4	7.1	1.1	-3
CC(C)(C)c1csc(NC(=O)Cn2cnc3ccccc3c2=O)n1	-2.5	1.1	?	4	2	2.3	1.2	5
CC(C)(C)c1ccc(S(=O)(=O)NCc2ccc(C(=O)NCc3ccccn3)cc2)cc1	-2.4	-0.5	-7	-8	-6	3.1	2.0	-4
CCOc1ccc(NC(=O)CN(C)C(=O)c2ccc(N3CCCC3)c([N+](=O)[O-])c2)cc1OCC	10	-0.6	7	3	-9	-1.4	2.7	-6
Cc1ccc(C(=O)NCCCNC(=O)c2cccnc2)cc1	1.2	-0.2	-4	10	-10	0.0	-3.3	·
Cc1cc(C)c2oc(-c3cccc(NC(=O)c4ccc(F)cc4)c3)nc2c1	0.3	1.8	14	-10	-2	2.4	-1.2	7
CSc1ccc(CCNC(=O)CCc2nnc3ccc(N4CCCCC4)nn23)cc1	-0.8	0.2	11	-3	-21	?	2.6	-5
COC(=O)C(NC(=O)c1ccccc1)c1ccccc1 (stereo unspecified)	-0.6	-0.1	-1	5	1	-5.6	5.0	1
O=C(CN1CCN(c2nc(-c3ccccc3)cs2)CC1)NNC(=O)c1ccc(Br)cc1	3.8	-1.3	0	18	0	2.4	4.5	0
Cc1ccc(OCCn2cc(/C(N)=N/O)c3ccccc32)cc1C	1.4	2.0	23	-1	31	1.0	3.8	-2
CC(C)(C)c1ccc(NC(=O)c2c(F)cccc2Cl)cc1	2.2	-0.8	6	4	8	-1.6	7.2	1
Cc1cc(N2CCC(C)CC2)n2nc(C)c(-c3ccccc3)c2n1	1.7	-0.3	-12	28	4	4.3	-47	5
COC(=O)c1ccc(N2CCN(S(=O)(=O)c3ccc4ccccc4c3)CC2)c([N+](=O)[O-])c1	4.7	0.4	-1	8	1	-0.2	4.2	5
CN1CCN(c2ccccc2NC(=O)c2cccc([N+](=O)[O-])c2)CC1	2.6	1.1	-10	7	-4	1.3	0.5	0
CCC(C)n1cnc2c(c1=O)c1nc3ccccc3nc1n2Cc1ccc(OC)cc1 (stereo unspecified)	-9.9	0.0	98*	40	-17	1.7	-13	-2
COC(=O)c1sccc1NC(=S)N1CCC(C)CC1	-5.8	0.0	-21	-11	-1	1.4	0.5	·
COC(=O)c1cc2sccc2n1CC(=O)Nc1cccc(SC)c1	0.1	0.8	0	7	6	-3.3	5.3	2
COc1ccc(/C=C(\NC(=O)c2cccs2)C(=O)Nc2ccc(C)cc2)cc1OC	-1.6	0.0	-21	-9	-1	1.4	-13	-6
O=C(N1CCCCCC1)N1CCN(S(=O)(=O)c2cccc([N+](=O)[O-])c2)CC1	7.0	1.1	8	15	5	2.8	0.8	4

Three compounds from above, sorted by the value under RanGTP-Imp inh, smallest number first:
SMILES | LANA-H2A inh | B2AR ag | RanGTP-Imp inh | UCH37 DUB inh
COC(=O)C(NC(=O)c1ccccc1)c1ccccc1 (stereo unspecified) | -0.6 | 1 | -5.6 | 5.0
CCOc1ccc(NC(=O)CN(C)C(=O)c2ccc(N3CCCC3)c([N+](=O)[O-])c2)cc1OCC | 10 | -9 | -1.4 | 2.7
CN1CCN(c2ccccc2NC(=O)c2cccc([N+](=O)[O-])c2)CC1 | 2.6 | -4 | 1.3 | 0.5

Returning to the listing with the four entries that preceded the break.
SMILES	LANA-H2A inh	A1 inh	Calb FLC	T cruzi repl	B2AR ag	RanGTP-Imp inh	UCH37 DUB inh	Beta cell apopt
COC(=O)c1sccc1NC(=S)N1CCC(C)CC1	-5.8	0.0	-21	-11	-1	1.4	0.5	·
COC(=O)c1cc2sccc2n1CC(=O)Nc1cccc(SC)c1	0.1	0.8	0	7	6	-3.3	5.3	2
COc1ccc(/C=C(\NC(=O)c2cccs2)C(=O)Nc2ccc(C)cc2)cc1OC	-1.6	0.0	-21	-9	-1	1.4	-13	-6
O=C(N1CCCCCC1)N1CCN(S(=O)(=O)c2cccc([N+](=O)[O-])c2)CC1	7.0	1.1	8	15	5	2.8	0.8	4
COc1cc([N+](=O)[O-])c2ncsc2c1	0.3	0.4	19	0	2	-1.2	5.4	-10
CCCCCn1c(N)c(-c2nc3ccccc3o2)c2c([N+](=O)[O-])nn(CC)c(=O)c21	3.3	-1.4	1	5	-8	8.4	6.5	39
Cc1nc(NCCOc2ccccc2)sc1C(=O)Nc1ccccc1	-3.3	-7.7	-8	7	0	-0.6	1.9	·
Cc1onc(-c2ccccc2)c1-c1csc(N/N=C/c2ccccc2Cl)n1	1.8	0.2	7	·	2	-4.9	·	·
COC(=O)c1c(NC(=O)C(=O)N2CCOCC2)sc2c1CCC2	13*	0.3	12	12	2	4.1	5.3	-1
COc1cc(C=O)ccc1OCCOCCOc1ccccc1Cl	-2.1	-0.9	4	-7	2	-0.8	0.0	-12
Cc1cc(C)n2nc(-c3ccc(Br)cc3)cc2n1	0.6	-1.1	-4	-10	-2	-1.4	-25	-4
Cc1ccc(C)c(Nc2ncnc3nc[nH]c23)c1	2.0	0.7	4	-7	8	-0.4	3.4	1
O=C1CSC(c2ccccc2)N1c1ccc(F)cc1F (stereo unspecified)	2.2	0.0	-1	-2	4	0.1	5.4	-6
CC1CC(C)CN(C(=O)C2CCN(S(=O)(=O)c3ccc4c(c3)CC(C)N4C(=O)C3CC3)CC2)C1 (stereo unspecified)	-2.4	-1.2	3	9	-16	-0.9	-0.3	0
O=S(=O)(NC1=NCCCCC1)c1ccc(F)cc1F	3.0	-0.4	·	·	-4	·	2.3	-1
Cc1nc2ccc(C(=O)N3CCN(c4ccccn4)CC3)cc2s1	2.4	0.5	5	-7	-9	-0.4	-0.3	-5
O=C(OCC(=O)N(C1CCCCC1)C1CCCCC1)c1ccc(O)cc1	4.9	0.5	-5	-14	-13	4.8	3.0	-6
COc1ccc(NS(=O)(=O)c2cc3c(cc2C)NC(=O)CO3)c(OC)c1	-3.4	-0.1	-1	0	2	-1.5	4.3	-7
CSc1ccc(C(=O)C2CCCN(C(=O)c3ccc(C)nc3)C2)cc1 (stereo unspecified)	4.9	-0.2	-6	20	-3	-0.8	2.0	0
Cc1c(Cl)c([N+](=O)[O-])nn1CC(=O)N1CCc2ccccc2C1	1.7	0.4	-1	·	7	4.4	3.6	-2
Cc1sc2ncnc(N3CCC(C(=O)Nc4ccc(OC(F)F)c(Cl)c4)CC3)c2c1C	0.3	-0.1	·	·	9	·	2.7	4
CCCCCCC(=O)N1CCC(c2nc3c(nnn3Cc3ccccc3Cl)c(=O)[nH]2)CC1	-0.5	-0.3	30	18	11	-0.9	4.4	16
O=C(COc1ccc(F)cc1)NCCN1CCCC1	1.3	-0.6	-5	-8	5	-3.7	4.2	-4
COc1ccc(CN(C)C2CCN(C)CC2)cc1OC	1.7	0.1	-6	5	9	1.5	-2.4	-3
O=C(NCC1CCCN1S(=O)(=O)c1cccs1)C(=O)Nc1ccccc1 (stereo unspecified)	1.8	-1.3	2	3	-13	?	-0.1	-3
Cc1ccc(/C=C2\SC(=S)N(CCC(=O)NNC(=O)c3cccc(O)c3)C2=O)cc1	2.4	-0.3	-4	6	3	?	7.6	0
O=C(CSCCO)N1CCc2ccccc21	-3.1	1.6	-11	-1	1	-2.2	4.5	-2
CCCc1cc(SCC(=O)Nc2c(C)n(C)n(-c3ccccc3)c2=O)n2c(nc3ccccc32)c1C#N	3.0	0.1	-28	-8	·	7.5	-16	2
Cc1ccccc1Nc1nc(N)nc(COC(=O)c2cccc(S(=O)(=O)N(C)c3ccccc3)c2)n1	-3.1	-0.3	-1	10	-10	-1.2	3.5	-5
(list continues)
SMILES	LANA-H2A inh	A1 inh	Calb FLC	T cruzi repl	B2AR ag	RanGTP-Imp inh	UCH37 DUB inh	Beta cell apopt
CCOc1cc(C(=O)Nc2cc(C(=O)OC)ccc2C)ccc1OCC(=O)N1CCOCC1	4.6	0.0	·	·	7	·	2.3	0
Cc1ccc(Cl)cc1NC(=O)CCC(=O)NCc1ccco1	-4.0	-0.3	33	-10	-8	-0.2	0.2	1
Cc1ccccc1Nc1nc(N)nc(CSc2nc3ccccc3c(=O)n2CCCO)n1	3.7	0.5	?	6	-2	-1.7	4.6	-8
Cc1nc(NC(=O)c2ccccc2)sc1-c1csc(Nc2ccc(F)cc2)n1	-4.2	-11	14	-8	·	?	·	9
CCn1c(C)cc(O)cc1=O	-1.8	0.1	2	-4	-1	-1.3	5.0	-4
COc1cc(/C=N/NC(=O)C2(O)c3ccccc3-c3ccccc32)ccc1O	2.2	0.4	5	-9	5	2.6	·	2
CC(=O)c1cccc(NC(=O)c2cc3nc(C)cc(C)n3n2)c1	2.5	-2.3	1	13	-2	-3.6	-11	4
Cc1cccc(N2CCN(C(=O)c3cc4cc(F)ccc4[nH]3)CC2)c1C	-1.5	0.1	9	21	-17	-1.0	-1.1	0
COc1ccc(Cl)cc1N1C(=O)c2cccnc2C1=O	-0.2	0.7	-20	12	6	-1.9	0.7	·
CC1CCN(Cc2c(O)ccc3c2O/C(=C\c2ccco2)C3=O)CC1	2.0	-0.2	0	-11	-3	-41	-0.1	-5
c1csc(Cc2nn3c(-c4n[nH]c5c4CCC5)nnc3s2)c1	0.8	0.6	22	20	6	?	0.7	1
N#CCSc1nc2cc(C(=O)N3CCCC3)ccc2c(=O)n1Cc1ccccc1	-5.5	1.0	-11	4	1	-2.1	3.5	10
CNC(=O)c1[nH]nc2c1CCc1cc(OC)ccc1-2	-5.1	-0.8	-1	20	-3	-0.9	4.6	-3
Cc1cc(Nc2ccc(Cl)cc2)nc(N2CCOCC2)n1	3.7	-0.5	19	26	7	-1.7	2.9	-6
O=C(Nc1cccc(-c2cscn2)c1)C1CCN(Cc2ccc(CO)o2)CC1	·	·	0	-9	-6	1.8	-1.1	·
O=C(c1ccc(F)cc1)N1CCCN(c2nc(-c3ccccc3)ns2)CC1	-8.8	-0.3	-5	2	-13	1.0	2.7	6
Cc1ccc(C(=O)OCCN(C)Cc2ccccc2)cc1	1.2	1.1	?	-8	10	3.8	2.0	-7
